RecA intein inh – Mtb RecA intein splicing inhibition | P9WHJ3 | cell-free RecA intein splicing, fluorescence | inhibition, %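 (about 9 µM by stock and volumes)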 | 290,000 tested, 0.75% active | AID 2221; in the data active means inhibition above about 30%; inconclusive means no clear call, values can overlap the other calls;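 further: 0% = vehicle wells and 100% = reference inhibitor control wells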
Target sequence (P9WHJ3 whole entry, looked up): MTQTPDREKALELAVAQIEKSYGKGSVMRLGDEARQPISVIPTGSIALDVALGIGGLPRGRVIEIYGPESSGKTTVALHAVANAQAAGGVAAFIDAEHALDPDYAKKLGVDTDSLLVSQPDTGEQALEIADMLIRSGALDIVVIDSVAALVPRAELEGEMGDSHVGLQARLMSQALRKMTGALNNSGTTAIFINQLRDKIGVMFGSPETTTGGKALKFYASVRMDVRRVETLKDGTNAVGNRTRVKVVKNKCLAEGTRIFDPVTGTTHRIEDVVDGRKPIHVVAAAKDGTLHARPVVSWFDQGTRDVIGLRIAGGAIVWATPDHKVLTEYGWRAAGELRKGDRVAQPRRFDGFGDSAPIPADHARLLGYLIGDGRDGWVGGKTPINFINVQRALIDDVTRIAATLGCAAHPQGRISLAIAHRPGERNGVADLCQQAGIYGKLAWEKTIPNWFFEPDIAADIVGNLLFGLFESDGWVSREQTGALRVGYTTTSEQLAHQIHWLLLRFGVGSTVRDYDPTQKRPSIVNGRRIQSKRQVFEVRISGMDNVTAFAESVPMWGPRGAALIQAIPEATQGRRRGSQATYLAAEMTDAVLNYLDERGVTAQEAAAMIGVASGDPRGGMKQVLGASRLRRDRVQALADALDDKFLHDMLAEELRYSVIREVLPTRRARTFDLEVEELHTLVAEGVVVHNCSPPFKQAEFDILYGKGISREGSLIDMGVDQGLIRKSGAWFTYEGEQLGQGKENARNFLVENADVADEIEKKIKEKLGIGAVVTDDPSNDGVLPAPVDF
YopH inh – YopH (Yersinia) phosphatase inhibition; fluorescence Ex485/Em525; inhibition, %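 (about 10 µM by stock and volumes)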; 140,000 tested, 0.16% active; AID 898;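 active means inhibition of 50% or more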;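 further: controls were vehicle for no effect and minimum signal wells for full effect; inactives centre near -20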
Mtb bLac sens – beta-lactam sensitization of Mtb H37Rv; M. tuberculosis H37Rv growth with meropenem, percent inhibition; hits of this screen are not shown here; inhibition, % at 25 µM; 330,000 tested, 0.27% active;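 active means about 74% or more and at least 40 points above the plate without the antibiotic, then above 30% in a dose series; inconclusive means first-round hits that could not be retested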;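 further: growth measured after seven days incubation then overnight dye step; 0% = bacteria only wells and 100% = bacteria with antibiotic; twin plates without the antibiotic show which effects depend on it; some results filed as inactive read as strong as hits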
Mtb growth – M. tuberculosis H37Rv growth inhibitors, H37Rv strain (AID 1626) | M. tuberculosis H37Rv growth inhibition; higher % means a stronger effect | 220,000 tested, 0.95% active | one-dose inhibition, % at 10 µM; IC50 in µM for titrated hits;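 active means confirmed in a dose series; inconclusive means inhibition above 80% but not taken into the dose series; inactive means below 80% or under 30% at every dose of the series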;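 further: bacteria incubated seven days before Alamar blue readout; 0% = bacteria only wells and 100% = bacteria with antibiotic wells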
Arbovirus inh – blocks arbovirus infection. arbovirus infection cell-based antiviral screen. inhibition, % at 10 µM. 200,000 tested, 0.37% active. AID 1251;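 active means inhibition from about 30%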;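 further: bluetongue infection of BSR cells; cell survival read as ATP light after 72 h; 0% = infected wells without compound and 100% = uninfected wells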
Arbovirus inh repeat – further read-out of Arbovirus inh, marked with its call; inhibition, %; measured here: 10K subset replicate screen; many hits read low in the repeat;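 first of two repeat runs on a subset; 0% = infected and 100% = uninfected wells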
An asterisk follows results filed as active; ? = inconclusive; . = not tested or not shown.

SMILES | RecA intein inh | YopH inh | Mtb bLac sens | Mtb growth | Arbovirus inh | others
Clc1ncccc1OCc1ccccc1 | -2.6 | . | 1.4 | . | .
CCSc1nnc(NC(=O)C(Cc2ccccc2)n2cccc2)s1 (configuration not stated) | -1.5 | -8.8 | -3.5 | 6.5% | 3.1
COc1cccc2cc(C(=O)C3=C(O)C(=O)N(CCN4CCOCC4)C3c3ccc(Cl)cc3)oc12 (configuration not stated) | 0.5 | . | -12.2 | -5.4% | .
COC(=O)C(C)Oc1ccc2cc(-c3ccccc3)c(=O)oc2c1 (configuration not stated) | -6.2 | . | 99.7 | . | .
N#Cc1c2n(c(=S)n(-c3ccccn3)c1=O)CCCCC2 | 3.8 | -3.9 | -2.6 | -12.4% | -1.8
Cc1c(Br)cc(C(=O)O)c(C)c1C | -0.5 | -44.0 | -0.9 | -7.3% | 7.7
CCn1c(SCC(=O)c2cccs2)nnc1-c1cccs1 | 0.9 | -48.5 | -9.5 | 3.8% | 5.3
O=C(C1=C[C@H](c2csc3ccccc23)C[C@H](OCc2ccc(CO)cc2)O1)N1CCOCC1 | 4.6 | . | 10.0 | -1.7% | -4.8
Cc1cc(N/N=C\c2ccc(Br)cc2)nc(-n2nc(C)cc2C)n1 | 0.3 | . | 90.3 | ? | .
Cc1occc1-c1nnc(SCc2nnc(-c3ccc(Cl)cc3)o2)n1C | 1.4 | -30.3 | -2.8 | -1.9% | 2.3
Cc1nc(SCC(=O)Nc2cccc(C(=O)O)c2)n[nH]1 | -3.2 | . | 2.1 | . | .
Cc1cc(C)nc(N/N=C/c2ccccc2)n1 | -0.7 | -31.3 | -10.2 | -7.7% | 1.8
CCc1nc2cccnc2n1-c1ccc(C(=O)O)cc1 | -3.5 | . | 1.0 | . | .
Cc1ccc(S(=O)(=O)N(Cc2n[nH]c(=S)n2-c2ccccc2)c2ccccc2)cc1 | 2.5 | . | -8.6 | 0.5% | .
CC1CCc2nn(CC(=O)NCCCN3CCCC3=O)cc2C1 (configuration not stated) | 1.5 | -22.8 | -3.2 | 0.9% | 5.8 | Arbovirus inh repeat=1.0

Already shown: an excerpt of the list.
SMILES | RecA intein inh | YopH inh | Mtb bLac sens | Mtb growth | Arbovirus inh | others
Cc1occc1-c1nnc(SCc2nnc(-c3ccc(Cl)cc3)o2)n1C | 1.4 | -30.3 | -2.8 | -1.9% | 2.3
Cc1nc(SCC(=O)Nc2cccc(C(=O)O)c2)n[nH]1 | -3.2 | . | 2.1 | . | .
Cc1cc(C)nc(N/N=C/c2ccccc2)n1 | -0.7 | -31.3 | -10.2 | -7.7% | 1.8
CCc1nc2cccnc2n1-c1ccc(C(=O)O)cc1 | -3.5 | . | 1.0 | . | .
Cc1ccc(S(=O)(=O)N(Cc2n[nH]c(=S)n2-c2ccccc2)c2ccccc2)cc1 | 2.5 | . | -8.6 | 0.5% | .
CC1CCc2nn(CC(=O)NCCCN3CCCC3=O)cc2C1 (configuration not stated) | 1.5 | -22.8 | -3.2 | 0.9% | 5.8 | Arbovirus inh repeat=1.0

Other structures follow.
SMILES | RecA intein inh | YopH inh | Mtb bLac sens | Mtb growth | Arbovirus inh | others
COc1ccc(Cn2c(=O)[nH]c3cc(C(=O)NC4CCN(Cc5ccccc5)CC4)ccc32)cc1 | 1.8 | . | -4.3 | -3.5% | -15.2
O=c1nc2ccc(Cl)cn2c2ccc(S(=O)(=O)N3CCOCC3)cc12 | -71.3 | . | 0.2 | . | .
CCOC(=O)/C(C#N)=C/c1cc2ccccc2nc1N1CCCCC1 | 3.0 | . | 22.4 | 15.1% | 18.6
C=C(C)c1cccc(C(C)(C)NC(=O)NC2CC(C)(C)NC(C)(C)C2)c1 | -2.3 | . | -6.2 | 0.0% | 6.3
COCCOC(=O)c1c(C)oc2ccc(NS(=O)(=O)c3ccccc3)cc12 | 5.0 | -6.3 | 4.5 | 12.7% | -3.6
COCCNC(=O)c1cc(-c2ccccc2)nn1CC1CC(c2cccc([N+](=O)[O-])c2)=NO1 (configuration not stated) | 0.6 | . | -10.7 | -0.7% | .
Cc1cc(C)cc(OCC(=O)N/N=C/c2ccc([N+](=O)[O-])o2)c1 | 0.4 | . | 100.2 | ? | -10.2
Cn1c(CCNC(=O)c2ccco2)nc2cc(NC(=O)NC3CCCCC3)ccc21 | -0.7 | -7.0 | ? | -6.5% | 0.7
N#CCCn1c(=S)[nH]c2ccccc21 | 0.7 | -19.3 | 5.9 | -6.0% | 5.5
COc1ccc(CCN(CC(=O)NC2CCCC2)C(=O)Cn2nnc(-c3ccc(C)o3)n2)cc1OC | 0.5 | . | 4.2 | -6.2% | -1.5
CCN(CC)CCNCC(O)(c1ccc(Cl)cc1)c1ccc(Cl)cc1 | 14.9 | . | -1.2 | 2.6% | -24.5
COCCNc1cc(C)c(C#N)c2nc3ccccc3n12 | 3.6 | -26.0 | 3.3 | 4.9% | -2.3
CCOC(=O)c1cc(NC(=O)N(CC)CC)c(C)nc1C | -1.2 | 0.0 | -7.8 | -6.4% | -1.3
COc1ccc(-c2cc3c(=O)n(CC(=O)Nc4ccc(Cl)cc4)ncn3n2)cc1 | 0.9 | . | 8.9 | . | .
COc1ccc(NC(=S)N2c3ccccc3CC2C)cc1OC (configuration not stated) | -1.3 | . | -1.8 | 4.8% | -0.5
C/C(=N\NC(=O)c1nn(C)c(C)c1Br)c1cccc(NC(=O)c2ccoc2C)c1 | -0.2 | -5.8 | 2.9 | 6.2% | -2.9
COc1cc(/C=C2\C(=N)N3N=C(N4CCOCC4)SC3=NC2=O)ccc1OC(=O)c1ccccc1 | 3.1 | . | -1.4 | . | .
Cn1cc(C(=O)OCC2CCN(CCNS(C)(=O)=O)CC2)c2ccccc21 | 0.1 | . | -4.5 | -6.9% | .
COCCCn1c(SCC(=O)NC(C)(C)C)nnc1-c1cccs1 | -1.1 | . | -5.3 | -9.2% | .
CC(C)(C)NC(=O)COC(=O)c1ccccc1OCC(=O)Nc1ccc(Br)cc1 | 1.9 | -19.7 | -2.5 | -3.4% | -4.8
CC(=O)c1ccc(S(=O)(=O)N2CCC3(CC2)CC(=O)c2ccccc2O3)cc1 | -1.6 | . | -10.3 | . | .
CCOC(=O)/C(C#N)=C/c1c(Oc2cccc(C)c2)nc2ccccn2c1=O | 1.2 | . | -6.6 | 2.3% | .
CC1Cc2c([nH]c3ccccc23)C2c3ccccc3CN12 (configuration not stated) | -7.4 | . | -2.6 | . | .
CCOC(=O)N1CCN(C(=O)CSc2nc(=O)n3ccc(C)cc3n2)CC1 | -2.1 | . | -3.9 | . | .
Nc1cccc(CN2CCCC2)c1 | . | . | -7.8 | -3.0% | 3.1
CCOc1ccc(NC(=O)CC2C(=O)N(c3ccccc3)C(=O)N2CCOC)cc1 (configuration not stated) | 1.4 | . | -1.6 | 5.9% | 8.0
Cc1ccc(S(=O)(=O)Nc2c(NC3CCCCC3)c3ccccc3oc2=O)cc1C | -3.9 | . | 2.4 | . | .
Cc1ccc(NC(=O)CN2C(=O)c3ccccc3S2(=O)=O)c(C)c1 | -0.2 | . | -4.5 | . | .
CCOC(=O)c1nc(C)n(-c2ccc(Cl)cc2)n1 | 49.0* | 51.9* | -0.6 | 8.5% | 5.7
CCOc1ccc(N(CC(=O)Nc2cccc(Cl)c2)S(=O)(=O)c2c(C)noc2C)cc1 | . | -1.6 | -5.0 | 0.7% | 24.9 | Arbovirus inh repeat=-0.8
CC(=O)C(Sc1nc(-c2ccc(F)cc2)nc2c1c(=O)n(C)c(=O)n2C)C(C)=O | . | . | . | -1.8% | 5.2
CCN1C(=O)C(CC(=O)Nc2ccc(OC)cc2)N(Cc2ccc3c(c2)OCO3)C1=S (configuration not stated) | 0.6 | 3.3 | 5.0 | 0.6% | -17.0
COc1cccc(CNC(=O)c2nnn(CC(=O)Nc3cc(Cl)ccc3C)c2N)c1 | -0.8 | . | 6.4 | . | .
Cc1ccccc1Nc1nnc(SCC(=O)NCc2ccco2)s1 | . | -28.7 | -2.1 | -0.8% | -6.0
COc1ccc(S(=O)(=O)Nc2cc3c4c(c2)CCC(=O)N4CCC3)cc1 | -0.6 | . | -4.4 | . | .
Cc1nn(Cc2ccc(F)cc2)c(C)c1NC(=O)c1cnn2c1NC(c1cccs1)CC2C(F)(F)F (configuration not stated) | . | 7.4 | 3.1 | -3.4% | -21.1
CC1(C)Cc2ccccc2-c2nc3n(c(=O)c21)CCCS3 | -0.7 | . | 2.6 | -5.2% | 4.0
O=C(CS(=O)(=O)c1cn(Cc2ccc(Cl)cc2)c2ccccc12)N1CCCC1 | -2.8 | -6.3 | -13.0 | 7.5% | 22.1
CCOc1cc(CNc2cccc3ccccc23)cc(Br)c1OCC(=O)NC(C)(C)C | 4.4 | -13.2 | 22.6 | 7.5% | 2.6
CCOC(=O)CNS(=O)(=O)c1ccc(S(=O)(=O)N2CCCC2)cc1 | 4.4 | -24.7 | 8.6 | -7.3% | -0.7
Cc1ccc(C)c(C(=O)COC(=O)C(C)N2C(=O)C3C4CCC(C4)C3C2=O)c1 (configuration not stated) | 1.6 | . | -0.7 | . | .
COc1ccc(-c2csc(=Nc3ccccc3)n2CCO)cc1 | 7.6 | -21.9 | 8.8 | 4.9% | 5.2
CCc1nc(-c2ccccc2O)n(-c2ccccc2)n1 | 2.1 | -10.7 | 68.7 | -9.3% | 6.0
CC1=CCC2C(=O)N(c3ccc(N4CCOCC4)cc3)C(=O)C2C1 (configuration not stated) | 0.9 | . | -0.2 | -4.8% | .
Cc1ccc(/C(O)=C2\C(=O)C(=O)N(C)C2c2ccccc2[N+](=O)[O-])cc1 (configuration not stated) | -0.9 | . | 4.7 | . | .

Filtered by structure, the entries above with two or more sulfur atoms.
SMILES | RecA intein inh | YopH inh | Mtb bLac sens | Mtb growth | Arbovirus inh | others
CCSc1nnc(NC(=O)C(Cc2ccccc2)n2cccc2)s1 (configuration not stated) | -1.5 | -8.8 | -3.5 | 6.5% | 3.1
CCn1c(SCC(=O)c2cccs2)nnc1-c1cccs1 | 0.9 | -48.5 | -9.5 | 3.8% | 5.3
Cc1ccc(S(=O)(=O)N(Cc2n[nH]c(=S)n2-c2ccccc2)c2ccccc2)cc1 | 2.5 | . | -8.6 | 0.5% | .
COCCCn1c(SCC(=O)NC(C)(C)C)nnc1-c1cccs1 | -1.1 | . | -5.3 | -9.2% | .
Cc1ccccc1Nc1nnc(SCC(=O)NCc2ccco2)s1 | . | -28.7 | -2.1 | -0.8% | -6.0
CCOC(=O)CNS(=O)(=O)c1ccc(S(=O)(=O)N2CCCC2)cc1 | 4.4 | -24.7 | 8.6 | -7.3% | -0.7

(more compounds)
SMILES | RecA intein inh | YopH inh | Mtb bLac sens | Mtb growth | Arbovirus inh | others
Cc1cc(OCCCC(=O)NCCc2ccccn2)ccc1Cl | 1.6 | . | -2.7 | . | .
COc1ccc(C2(c3ccc(OC)cc3)NC(=O)N(CC(=O)Nc3ccc(OC(F)F)cc3)C2=O)cc1 | 1.1 | . | 98.7 | . | .
O=C(Nc1ccccc1F)Nc1ccccc1OC(F)F | 0.5 | . | 0.9 | 2.0% | 14.1
CCOC(=O)N1CCN(C(=O)/C(=C/c2ccc(OC)c(OC)c2)NC(=O)c2ccccc2)CC1 | -1.0 | . | -6.0 | -0.4% | 1.6
COc1ccccc1-c1noc(CSc2nc(C)cc(=O)[nH]2)n1 | 2.2 | . | 1.5 | -3.9% | 5.4
Cc1ccccc1NS(=O)(=O)c1ccc2c(c1)NC(=O)CCS2 | 1.2 | . | -0.3 | . | .
Cc1ccc(S(=O)(=O)CCC(=O)OCC(=O)Nc2cc(S(=O)(=O)N3CCOCC3)ccc2C)cc1 | 1.0 | . | -0.1 | . | .
O=C1CSc2ccc(S(=O)(=O)NCc3ccccc3Cl)cc2N1 | -1.8 | . | 20.4 | . | .
CN(c1cccc(NC(=O)Nc2ccc(Cl)cc2)c1)S(C)(=O)=O | 4.9 | -19.3 | -7.4 | . | -2.9
CCN(CC)C(=O)CSc1nnc(-c2cnccn2)n1-c1ccccc1 | 9.8 | -33.3 | 2.6 | -5.8% | 0.4
CC(C)C(=O)Nc1cccc(NC(=O)c2ccc([N+](=O)[O-])cc2Cl)c1 | -1.5 | -28.7 | 0.1 | 4.8% | -4.7
CCCc1cc(-c2nc(N)ncc2-c2csc(C)n2)c(O)cc1OC | . | . | -2.8 | 10.1% | -18.6
O=C(CN1CCN(c2ccccc2)CC1)N1CCc2[nH]c3ccccc3c2C1 | . | -36.3 | 0.7 | -1.6% | 13.3
O=C(Nc1ccc(Cl)c(C(F)(F)F)c1)NC1CC2CCCC(C1)N2C1CC1 (configuration not stated) | . | 10.6 | 100.0 | ? | .
COc1cc(/C=N\Nc2nncn2N)ccc1OC(C)=O | 0.5 | . | 0.8 | . | .
COCCCNC(=O)c1ccc2c3c(onc13)-c1ccccc1C2=O | 36.9* | . | -6.0 | -1.8% | .
Cc1ccc(C(=O)O/N=C(\N)c2ccccc2)c(Cl)c1 | 5.6 | . | 1.7 | -1.7% | .

Only part of the results is shown (hit frequency here may not be typical).
